# FGF22 binding: binders of human FGF22 protein, primary screen, FGF22 synaptogenesis inhibitor project, biophysical, thermal shift, single point | Fibroblast growth factor 22 (Homo sapiens), Q9HCT0 | recombinant FGF22 thermal shift, SYPRO orange fluorescence; percent of sucrose octasulfate shift, DMSO zero | calls only at 9.99 µM | hit rate 1.5% among 340,000 | AID 651658, 2012;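 active = melting point raised past a set limit in the mean and every replicate; inconclusive = no clear call; three in four hits are not shown here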
# Target sequence (Q9HCT0 whole entry, looked up): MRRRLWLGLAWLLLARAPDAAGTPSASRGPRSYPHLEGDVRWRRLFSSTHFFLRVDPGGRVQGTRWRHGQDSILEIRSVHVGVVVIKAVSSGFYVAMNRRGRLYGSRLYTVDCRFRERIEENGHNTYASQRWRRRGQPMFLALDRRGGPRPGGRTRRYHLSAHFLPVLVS
# MLL AF4-AF9 inh: inhibitors of AF4 peptide binding to AF9, primary screen, biochemical, AlphaScreen, biotin-AF4 peptide, FLAG-AF9, single point; Protein AF-9 (Homo sapiens), P42568; hit rate 0.47% among 350,000; inhibition, % at 10 µM;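 active = every replicate reaching a set inhibition limit, whatever the replicate mean, cut at about 25% in these data; inconclusive = mean inhibition reaches that limit but some replicates miss it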;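 also: 0% = plate neutral control median and 100% = total signal loss; the record names both 10 and 1 µM as test concentration; the first replicate is given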
# Target sequence (P42568 whole entry, looked up): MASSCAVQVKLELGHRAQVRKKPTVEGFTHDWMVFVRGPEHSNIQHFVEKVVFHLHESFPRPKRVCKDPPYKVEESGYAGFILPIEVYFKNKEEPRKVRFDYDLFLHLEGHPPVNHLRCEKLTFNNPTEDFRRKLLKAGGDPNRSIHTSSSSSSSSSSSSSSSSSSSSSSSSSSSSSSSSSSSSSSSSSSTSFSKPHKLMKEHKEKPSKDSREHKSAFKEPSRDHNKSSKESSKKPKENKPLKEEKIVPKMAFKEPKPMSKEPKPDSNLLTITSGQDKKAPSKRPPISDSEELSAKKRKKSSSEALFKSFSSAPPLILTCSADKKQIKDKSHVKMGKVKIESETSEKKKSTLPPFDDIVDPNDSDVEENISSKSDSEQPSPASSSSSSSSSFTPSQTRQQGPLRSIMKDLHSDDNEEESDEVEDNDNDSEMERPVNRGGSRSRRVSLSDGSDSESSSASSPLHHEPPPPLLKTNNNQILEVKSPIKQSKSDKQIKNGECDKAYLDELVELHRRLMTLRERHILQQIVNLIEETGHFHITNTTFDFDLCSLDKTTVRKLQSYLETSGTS
# The depositor's hits bear a star; i = inactive; ? = inconclusive.
compound	FGF22 binding	MLL AF4-AF9 inh
CCCN(C)C[C@H]1Oc2ncc(-c3cccc(C(=O)N(C)C)c3)cc2C(=O)N([C@@H](C)CO)C[C@H]1C	i	-1.8
CO[C@H]1CN(C)C(=O)c2cc(NC(=O)c3cc(C)on3)ccc2OC[C@H](C)N(C(=O)C2CC2)C[C@@H]1C	i	-0.8
COc1ccc(CNC(=O)C[C@H]2C[C@H]3c4cc(NC(=O)CN(C)C)ccc4O[C@H]3[C@H](CO)O2)cc1	i	0.8
C[C@H](CO)N1C[C@H](C)[C@@H](CN(C)Cc2ccc(-c3ccccc3)cc2)Oc2c(NS(C)(=O)=O)cccc2C1=O	i	17.0
COCCNC(=O)[C@@H]1[C@@H](CO)[C@@H]2Cn3c(ccc(C4=CCCCC4)c3=O)[C@H]1N2C(=O)C1CCC1	i	-0.9
C[C@@H]1CN([C@H](C)CO)S(=O)(=O)c2ccc(C#CCN(C)C)cc2O[C@H]1CN(C)C(=O)c1ccccc1F	i	-0.5
CNC[C@@H]1Oc2ccc(NC(=O)NC3CCCCC3)cc2CC(=O)N([C@@H](C)CO)C[C@H]1C	i	-3.1
O=C(N[C@@H]1CC[C@H](CCNS(=O)(=O)c2ccccc2)O[C@H]1CO)c1cccnc1	i	-2.5
C[C@@H]1CN([C@@H](C)CO)C(=O)c2cc(NS(=O)(=O)c3ccccc3)ccc2O[C@@H](C)CCCCO[C@@H]1CN(C)C(=O)CCC(F)(F)F	i	-0.5
O=C(CN1CCOCC1)NCC[C@@H]1CC[C@H](NC(=O)c2ccccc2F)[C@@H](CO)O1	i	-1.3
C[C@@H]1CCCCO[C@H](CN(C)Cc2ccc(C(=O)O)cc2)[C@H](C)CN([C@@H](C)CO)C(=O)c2cc(NC(=O)NC3CCCCC3)ccc2O1	i	-2.0
COc1ccc(C#Cc2ccc([C@@H]3[C@@H](CO)N4C(=O)CN(C(=O)NC(C)C)C[C@H]34)cc2)cc1	i	-4.2
O=S(=O)(c1ccccc1)N1CCN(Cc2cccc(OCCO)c2)CC1	i	1.7
O=C(C[C@H]1CC[C@@H](NC(=O)C2CCC2)[C@@H](CO)O1)NCCCN1CCOCC1	i	0.3
CCCNC(=O)N1C[C@@H](O)COC[C@H]2O[C@@H](CC(=O)N3CCOCC3)CC[C@@H]21	i	-1.9
Cc1ccc(S(=O)(=O)NCC[C@@H]2CC[C@H](NC(=O)Nc3cccc(F)c3)[C@H](CO)O2)cc1	i	1.8
O=C(C[C@@H]1C=C[C@H](NC(=O)c2ccccc2)[C@H](CO)O1)NCc1ccncn1	i	-1.7
COc1cccc(C(=O)Nc2ccc3c(c2)OC[C@H](C)N(CC2CC2)C[C@@H](C)[C@@H](OC)CN(C)C3=O)c1	i	0.7
O=C1N[C@@H](c2ccccc2)COCc2cn(nn2)CC[C@H]1Cc1ccc(Cl)cc1	i	-1.2
C[C@@H]1CN([C@H](C)CO)C(=O)c2cccc(NC(=O)c3ccncc3)c2O[C@H]1CN(C)Cc1ccc(Oc2ccccc2)cc1	i	6.5
O=C(C[C@@H]1C=C[C@H](NC(=O)c2ccc3c(c2)OCO3)[C@@H](CO)O1)NCc1ccc(F)cc1	i	-1.5
Cc1ccc(S(=O)(=O)Nc2ccc3c(c2)C(=O)N(C)[C@@H]2CC[C@@H](CC(=O)NCCc4ccncc4)O[C@@H]2CO3)cc1	i	0.0
CN1C(=O)c2cc(NC(=O)Cc3cccs3)ccc2OC[C@H]2O[C@H](CC(=O)N[C@H]3CCN(Cc4ccccc4)C3)CC[C@H]21	i	?
COc1ccc(S(=O)(=O)N[C@H]2C=C[C@H](CC(=O)NCCc3ccccc3)O[C@@H]2CO)cc1	i	-1.0
C[C@@H]1CN([C@@H](C)CO)C(=O)Cc2cc(NS(=O)(=O)c3cccs3)ccc2O[C@@H]1CN(C)Cc1ccc(-c2ccccc2)cc1	i	0.3
COc1ccc(S(=O)(=O)Nc2ccc3c(c2)CC(=O)N([C@@H](C)CO)C[C@@H](C)[C@@H](CN(C)C(=O)Nc2cccc4ccccc24)O3)cc1	i	-0.6
C[C@@H]1CCCCO[C@H](CN(C)C(=O)Nc2cccc3ccccc23)[C@H](C)CN([C@@H](C)CO)C(=O)c2cc(NC(=O)c3ccccc3)ccc2O1	i	2.3
C[C@@H]1CN([C@@H](C)CO)S(=O)(=O)c2ccc(/C=C/c3ccccc3)cc2O[C@H]1CN(C)C(=O)CN1CCOCC1	i	5.6
C[C@H]1CN([C@@H](C)CO)C(=O)c2cc(/C=C/c3ccccc3)cnc2O[C@@H]1CN(C)Cc1cccc(C(=O)O)c1	i	0.2
CC(=O)N1[C@H](CNC(=O)C2CC2)[C@@H](c2ccc(-c3cccc(F)c3)cc2)[C@@H]1CO	i	0.2
Cc1noc(C)c1NC(=O)Nc1ccc2c(c1)C(=O)N([C@@H](C)CO)C[C@H](C)[C@H](CN(C)CC1CCCCC1)O2	i	-3.3
N#C[C@@H]1[C@@H](c2ccccc2-c2cccc(F)c2)[C@H](CO)N1C(=O)Cc1cccnc1	i	-2.6
CCCNC(=O)Nc1ccc2c(c1)OC[C@H](C)N(C(C)=O)C[C@H](C)[C@H](OC)CN(C)C2=O	i	-1.7
C[C@@H]1CN([C@H](C)CO)C(=O)c2cc(NS(=O)(=O)c3ccc(Cl)cc3)ccc2O[C@@H](C)CCCCO[C@@H]1CN(C)Cc1ccc(C(=O)O)cc1	i	0.2
CO[C@H](CCO)[C@H](O)c1ccc(O)c(F)c1	i	-0.4
CCC(=O)Nc1ccc2c(c1)C(=O)N(C)[C@H]1CC[C@@H](CC(=O)NCCCN(C)C)O[C@H]1CO2	i	0.6
O=C(C[C@H]1C[C@@H]2c3cc(NC(=O)Nc4ccc(C(F)(F)F)cc4)ccc3O[C@@H]2[C@H](CO)O1)NCc1ccc2c(c1)OCO2	i	1.3
C[C@H](CO)N1C[C@H](C)[C@@H](CN(C)S(=O)(=O)c2ccc(Cl)cc2)OCCCC[C@H](C)Oc2ccc(NC(=O)c3ccccc3)cc2C1=O	i	-1.7
C[C@H](CO)N1C[C@H](C)[C@H](CN(C)Cc2ccncc2)Oc2ncc(-c3cc4ccccc4o3)cc2C1=O	i	2.0
O=C(Nc1ccc2c(c1)[C@H]1C[C@@H](CC(=O)N3CCOCC3)O[C@@H](CO)[C@H]1O2)NC1CCCC1	i	-1.1
Cc1noc(C)c1NC(=O)Nc1ccc2c(c1)C(=O)N([C@H](C)CO)C[C@H](C)[C@@H](CN(C)S(=O)(=O)c1cccs1)OCCCC[C@H](C)O2	i	-1.1
CC(C)NC(=O)Nc1ccc2c(c1)C(=O)N([C@@H](C)CO)C[C@H](C)[C@H](CN(C)Cc1ccc(C(=O)O)cc1)OCCCC[C@@H](C)O2	i	-5.9
CCCNC(=O)N1CC2(CCN(CC3CCCC3)CC2)c2c([nH]c3cc(OC)ccc23)[C@H]1CO	i	-1.5
C[C@@H]1CCCCO[C@@H](CN(C)C)[C@@H](C)CN([C@@H](C)CO)C(=O)c2cc(NS(=O)(=O)c3ccc(Cl)cc3)ccc2O1	i	0.9
Cc1ccccc1-c1ccccc1[C@H]1[C@@H](C#N)N(C(=O)c2cccc(F)c2)[C@@H]1CO	i	1.7
CCCC#Cc1ccc2c(c1)O[C@H](CN(C)Cc1ccncc1)[C@H](C)CN([C@H](C)CO)S2(=O)=O	i	7.2
O=C(C1CCOCC1)N1CC[C@H]2[C@H](CO)Nc3ccc(Br)cc3[C@H]21	i	-1.6
C[C@@H]1CN([C@@H](C)CO)C(=O)Cc2cc(NC(=O)Nc3ccc(C(F)(F)F)cc3)ccc2O[C@H]1CN(C)CC1CC1	i	0.9
CCCNC(=O)N[C@@H]1CC[C@H](CC(=O)NC2CCCCC2)O[C@@H]1CO	i	-2.1
COc1ccc(S(=O)(=O)Nc2ccc3c(c2)C(=O)N([C@H](C)CO)C[C@@H](C)[C@@H](CN(C)Cc2ccc(C(=O)O)cc2)OCCCC[C@H](C)O3)cc1	i	-8.8

# Two entries from above in a different format.
CC(C)NC(=O)Nc1ccc2c(c1)C(=O)N([C@@H](C)CO)C[C@H](C)[C@H](CN(C)Cc1ccc(C(=O)O)cc1)OCCCC[C@@H](C)O2
  FGF22 binding: i | MLL AF4-AF9 inh: -5.9

CCCNC(=O)N1CC2(CCN(CC3CCCC3)CC2)c2c([nH]c3cc(OC)ccc23)[C@H]1CO
  FGF22 binding: i | MLL AF4-AF9 inh: -1.5

# The main list resumes; the three compounds before the break are reprinted first.
compound	FGF22 binding	MLL AF4-AF9 inh
C[C@@H]1CN([C@@H](C)CO)C(=O)Cc2cc(NC(=O)Nc3ccc(C(F)(F)F)cc3)ccc2O[C@H]1CN(C)CC1CC1	i	0.9
CCCNC(=O)N[C@@H]1CC[C@H](CC(=O)NC2CCCCC2)O[C@@H]1CO	i	-2.1
COc1ccc(S(=O)(=O)Nc2ccc3c(c2)C(=O)N([C@H](C)CO)C[C@@H](C)[C@@H](CN(C)Cc2ccc(C(=O)O)cc2)OCCCC[C@H](C)O3)cc1	i	-8.8
C[C@@H]1CN([C@@H](C)CO)S(=O)(=O)c2ccc(C#CC3CC3)cc2O[C@@H]1CN(C)S(C)(=O)=O	i	3.0
C[C@@H]1CN([C@@H](C)CO)C(=O)Cc2cc(N(C)C)ccc2O[C@H]1CN(C)Cc1ccncc1	i	-3.0
O=C(C[C@H]1CC[C@@H](NC(=O)Nc2ccc3c(c2)OCO3)[C@H](CO)O1)NCc1ccc(F)cc1	i	-0.7
CCNC(=O)C[C@H]1CC[C@H]2[C@H](COc3ccc(NC(=O)NC(C)C)cc3C(=O)N2C)O1	i	-2.7
O=C(C[C@H]1CC[C@@H]2[C@H](COC[C@H](O)CN2Cc2cccc(C(F)(F)F)c2)O1)NCc1ccccc1	i	1.8
C[C@H](CO)N1C[C@H](C)[C@@H](CN(C)Cc2ccc(C(=O)Nc3ccccc3N)cc2)Oc2ccc(NC(=O)Cc3cn(C)c4ccccc34)cc2C1=O	i	-3.6
CNC[C@H]1OCCCC[C@H](C)Oc2ccc(NS(C)(=O)=O)cc2C(=O)N([C@@H](C)CO)C[C@H]1C	i	-2.6
C[C@@H]1CCCCO[C@H](CN(C)C(=O)Nc2ccc(C(F)(F)F)cc2)[C@H](C)CN([C@H](C)CO)C(=O)c2cc(NC(=O)Nc3cccc4ccccc34)ccc2O1	i	-4.6
COc1ccc(CNC(=O)C[C@@H]2C=C[C@H](NC(=O)c3ccc4c(c3)OCO4)[C@@H](CO)O2)cc1	i	-0.7
COCC(=O)NC[C@H]1[C@@H](c2ccc(C3=CCCC3)cc2)[C@H](CO)N1C(=O)C1CC1	i	-1.7
C[C@H](CO)N1C[C@H](C)[C@@H](CN(C)Cc2ccc3c(c2)OCO3)Oc2ccc(NC(=O)CCCN(C)C)cc2CC1=O	i	15.5
CCCc1cn(CC[C@H]2CC[C@H](NC(=O)Nc3ccccc3F)[C@@H](CO)O2)nn1	i	1.0
O=C(N[C@H]1CC[C@@H](CC(=O)N2CCOCC2)O[C@@H]1CO)c1ccc2c(c1)OCO2	i	-1.7
C[C@@H]1CCCCO[C@@H](CN(C)S(=O)(=O)c2ccc(Cl)cc2)[C@H](C)CN([C@H](C)CO)C(=O)c2cc(NC(=O)c3ccccc3)ccc2O1	i	2.1
CNC[C@H]1Oc2ccc(NC(=O)Nc3ccc(OC)cc3)cc2CC(=O)N([C@H](C)CO)C[C@H]1C	i	0.7
C[C@H](CO)N1C[C@H](C)[C@@H](CN(C)Cc2cncnc2)Oc2ncc(C#Cc3ccccn3)cc2C1=O	i	-0.2
COc1ccc(S(=O)(=O)N(C)C[C@@H]2Oc3ccc(NC(=O)Nc4ccc5c(c4)OCO5)cc3C(=O)N([C@@H](C)CO)C[C@H]2C)cc1	i	7.8
CC(C)C#Cc1cnc2c(c1)C(=O)N([C@@H](C)CO)C[C@H](C)[C@H](CN(C)C(=O)Cc1ccccn1)O2	i	-14.9
CC(C)NC(=O)N(C)C[C@@H]1Oc2ccc(NS(=O)(=O)c3ccc(Cl)cc3)cc2CC(=O)N([C@H](C)CO)C[C@H]1C	i	1.1
C[C@@H]1CN([C@H](C)CO)C(=O)c2cc(-c3ccc(F)cc3)cnc2O[C@@H]1CN(C)C(=O)C1CCC1	i	-4.4
CCC(=O)Nc1ccc2c(c1)C(=O)N(C)C[C@H](OC)[C@H](C)CN(Cc1ccncc1)[C@@H](C)CO2	i	-2.1
O=C(CCN1CCCCC1)NCC[C@@H]1CC[C@H](NC(=O)C2CCOCC2)[C@@H](CO)O1	i	-5.2
O=C(Nc1ccc(F)cc1)N1C[C@@H]2[C@H](c3ccccc31)[C@H](CO)N2Cc1ccccc1Cl	i	1.7
CCCN1C[C@@H](C)[C@@H](OC)CN(C)C(=O)c2ccc(NC(=O)COC)cc2OC[C@H]1C	i	-10.2
Cc1noc(C)c1S(=O)(=O)Nc1ccc2c(c1)C(=O)N([C@@H](C)CO)C[C@H](C)[C@@H](CN(C)S(=O)(=O)c1ccc(Cl)cc1)OCCCC[C@@H](C)O2	i	4.4
COc1cccc(CNC(=O)C[C@H]2C=C[C@@H](NC(=O)C3CCOCC3)[C@@H](CO)O2)c1	i	-1.7
O=C(C[C@H]1CC[C@@H]2[C@H](COC[C@H](O)CN2Cc2ccc(C(F)(F)F)cc2)O1)NCCc1ccccc1	i	-1.8

# Not all compounds are listed; the hit share may differ from the screen's.
